Sa helicase inh: inhibitors of S. aureus replicative helicase, primary screen, biochemical, fluorescence unwinding readout; inhibition, %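 (tested at about 80 µM)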; 0.05% of 120,000 active; purified S. aureus helicase, fluorescence unwinding assay; about half of the hits fall short of the stated cut; replicative DNA helicase (DnaC/DnaB), Staphylococcus aureus;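 active = both duplicates at 50% or more, or one of them with a favoured structure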;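 note: 0% = mean of negative control wells and 100% = mean of positive control wells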
MgrA-DNA mod: S. aureus MgrA activity modulators, primary screen, biochemical, S. aureus Newman, fluorescence polarization; inhibition, %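 (about 10 µg/mL by stock and volumes)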; 0.13% of 84,000 active; MgrA-DNA binding; AID 602314, 2012;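 active = above 50% in either of two replicates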;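 note: 0% = protein plus DNA without compound and 100% = DNA alone without protein; higher means less MgrA bound to DNA so lower polarization; one replicate is shown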
The depositor's hits bear a star; . = no result given; & = joins results of further samples.

SMILES	Sa helicase inh	MgrA-DNA mod
N#CC(c1cccnc1)N1CCOCC1 (centres undefined)	.	-0.5
COc1cc(C(=O)OC2CC3CCC(C2)N3C)ccc1O (centres undefined)	.	2.4
C(=NCC1CCCO1)c1cccnc1 (centres undefined)	-25.0	0.3
CCC/C(=N\O)c1c[nH]c2ccccc12	-10.0	.
Cc1cccc2nc(CBr)cn12	-10.0	-3.7
CN1CCN(c2ncnc3c2cnn3C)CC1	.	0.3
NCC(=O)c1ccc(Cl)cc1	.	-0.6
COc1ccc2c(CCN)c[nH]c2c1	13.0	.
Cc1ccc(CSc2nnc(OC(=O)N(C)C)n2-c2cccc(Cl)c2)cc1	.	0.0
C=CC1CN2CCC1CC2C(OC(C)=O)c1ccnc2ccc(OC)cc12 (centres undefined)	.	-1.2
CC1CCCCN1C(=O)Cn1cc(C(=O)c2ccccc2)c2ccccc21 (centres undefined)	16.0	-3.4
N#CC(C#N)=Cc1ccc(-c2cccs2)s1	-74.0	.
CCCCCCCC1C(=O)NC(=O)NC1=O	-20.0	.
Cc1cccc(C)c1NC1=NC(C)(C)CS1	.	-0.7
O=C(COc1ccc(Oc2ccccc2)cc1)N1CCN(Cc2ccccc2)CC1	1.0	-0.9
Cc1nc(CC(=O)N2CCN(C/C=C/c3ccccc3)CC2)cs1	12.0	.
COc1ccc2[nH]c3c(c2c1)CCN=C3C	.	-3.3
Clc1ccc(C(OCCN2CCCCC2)c2ccccc2)cc1 (centres undefined)	.	-1.0&-0.5
CC(C)NCCc1c[nH]c2ccccc12	11.0	.
Cc1ccc(S(=O)(=O)C2(C(=O)N3CC4CC(C3)c3cccc(=O)n3C4)CC2)cc1 (centres undefined)	-36.0	.
COC(=O)Cn1cc(C=C2C(=O)N(C)C(=O)N(C)C2=O)c2ccccc21	-7.0	37.3
COc1cccc(C(c2c(O)[nH]c(=O)[nH]c2=O)N2CCCC(C)C2)c1OC (centres undefined)	8.0	.
O=C1CC(=O)N(CCC2=CCCCC2)C(=O)N1	5.0	4.3
CN1CCC2(CC1)CC(=O)c1ccccc1O2	5.0	-2.9
Cc1ccccc1NC1=NCC(C)S1 (centres undefined)	.	-1.5

Continuation.
SMILES	Sa helicase inh	MgrA-DNA mod
O=C(COc1ccc(C=C2C(=O)NC(=O)NC2=O)cc1)NCC1CCCO1 (centres undefined)	3.0	0.3
Brc1ccc(CN2CCNCC2)s1	-6.0	.
COc1cc(C)cc(CN2CC=C(c3ccccc3)CC2)c1O	0.0	.
Cc1nn(Cc2ccccc2)cc1C(=O)O	-9.0	-0.1
Clc1ccc(NCCN2CCCCCC2)nn1	-1.0	-0.5
CC(C)CCn1c(CC(C)(C)C)nc2ccccc21	6.0	-4.5
O=C(Cc1cccs1)N1CCN(CCc2ccccc2)CC1	7.0	-1.8
O=C(c1ccc(CS(=O)(=O)c2ccc(Br)cc2)o1)N1CCC2(CC1)OCCO2	10.0	.
Cc1ccc(S(=O)(=O)N2CCCC2c2cccnc2)cc1 (centres undefined)	.	1.3
C=CCN1CC[C@]23c4c5ccc(O)c4O[C@H]2C(=O)CC[C@@]3(O)[C@H]1C5	.	1.3
O=[N+]([O-])/C=C/c1c(Cl)cccc1Cl	.	0.2
CC1=C(C(=O)OC(C)C)C2(C(=O)Nc3ccccc32)C(C#N)=C(N)O1 (centres undefined)	.	1.2
COc1ccccc1N1CCN(Cc2ccccc2Cl)CC1	.	-0.8
CCN(CC)[P+](NC(=O)c1ccccc1)(c1ccccc1)N(CC)CC	6.0	0.4
CN(C)CC(=O)c1ccc2cc[nH]c2c1	-8.0	.
CC(Cc1ccccc1)NCCC(c1ccccc1)c1ccccc1 (centres undefined)	.	0.2
C#CC1(O)CN2CCC1CC2 (centres undefined)	13.0	.
CCOC(=O)C1=C(C)OC(N)=C(C(=O)OCc2ccccc2)C12C(=O)Nc1ccccc12 (centres undefined)	.	2.5
CCCC12CN3CC(CCC)(CN(C1)C3C)C2=O (centres undefined)	-9.0	.
CC(C)C/C(=N\O)c1cn(C)c2ccccc12	3.0	1.5
CCOC(=O)c1c(C)n(Cc2ccccc2)c2ccc(OC(=O)c3ccccc3Cl)cc12	.	-1.1
CC(=O)O[C@H]1C[C@H](O[C@H]2[C@@H](O)C[C@H](O[C@H]3[C@@H](O)C[C@H](O[C@H]4CC[C@@]5(C)C(CCC6C5C[C@@H](O)[C@]5(C)[C@@H](C7=CC(=O)OC7)CC[C@]65O)C4)O[C@@H]3C)O[C@@H]2C)O[C@H](C)[C@H]1O[C@@H]1O[C@H](CO)[C@@H](O)[C@H](O)[C@H]1O (some centres undefined)	.	7.2
O=C(O)c1cn(Cc2ccccc2)c2ccccc12	16.0	.
COc1ccc(-n2cnc3cc(C(=O)N4CCC5(CC4)OCCO5)ccc32)cc1	-1.0	0.5
COc1ccc(CCNC2CCCCC2)cc1OC	5.0	-1.9

Continued.
SMILES	Sa helicase inh	MgrA-DNA mod
O=C1NC(=O)N(c2ccccc2)C(=O)/C1=C/C=C/c1ccco1	20.0	13.9
OC1CCN(Cc2c[nH]c3ccccc23)CC1	5.0	0.3
COCCOC(=O)C1=C(C)OC(N)=C(C#N)C12C(=O)Nc1ccc(Br)cc12 (centres undefined)	13.0	.
COC(=O)c1cn(Cc2ccc(C#N)cc2)c2ccccc12	8.0	-2.6
CC(=O)OCC1=C(C(=O)O)N2C(=O)[C@@H](NC(=O)CCCC(N)C(=O)O)C2SC1 (some centres undefined)	.	-12.4
C/[N+]([O-])=C\c1cccnc1	0.0	.
CCOC(=O)C1=C(N)Oc2c(c(=O)oc3ccccc23)C12C(=O)N(CC(=O)OC)c1ccccc12 (centres undefined)	6.0	3.0
O=S(=O)(c1ccc(Cl)cc1)N1CCCC1c1cccnc1 (centres undefined)	.	1.7
Cn1c(O)c(C(=NCCN2CCCCC2)c2ccccc2Cl)c(=O)n(C)c1=O	.	2.1
Clc1ccc(CN2CCNCC2)cc1	1.0	-0.1
CCC(C)c1c(O)[nH]c(=S)[nH]c1=O (centres undefined)	8.0	-2.4
COc1ccc(N2C(=O)/C(=C/c3ccc(-c4cc(C(=O)O)ccc4Cl)o3)C(=O)NC2=S)cc1	.	9.3
COC(=O)Nc1nc2ccccc2[nH]1	.	-2.9
COc1ccc(CC2C(=O)NC(=S)NC2=O)cc1	2.0	9.3
c1cc(CN2CCNCC2)ccn1	-10.0	-3.3
Oc1ccc(N2CCNCC2)cc1	21.0	.
C/C(=C\c1ccc(Cl)cc1)[N+](=O)[O-]	.	1.5
C1CCC(OCC2CCCN3CCCCC23)CC1 (centres undefined)	-19.0	1.0
N#CC1(P(=S)(c2ccccc2)c2ccccc2)CCCC1	9.0	-0.7
ON=C1CC2CCCC(C1)N2Cc1ccccc1	.	-2.4
COc1ccccc1CNCCc1ccccc1	14.0	-0.7
Cc1cc(Br)c(NC(=O)C2C(C)(C)C2(C)C)c(Br)c1	-11.0	-1.0
CN1CCC(N(C)c2nc(-c3cccs3)nc3sc4c(c23)CCC4)CC1	28.0	.
O=c1c2ccccc2[nH]c(=S)n1-c1cc(C(F)(F)F)cc(C(F)(F)F)c1	.	0.7
COc1ccccc1C1C(C#N)=C(N)Oc2c1c(=O)sc1ccccc21 (centres undefined)	-21.0	.

Ordered by SMILES length (falling): part of the list above.
SMILES	Sa helicase inh	MgrA-DNA mod
CC(=O)O[C@H]1C[C@H](O[C@H]2[C@@H](O)C[C@H](O[C@H]3[C@@H](O)C[C@H](O[C@H]4CC[C@@]5(C)C(CCC6C5C[C@@H](O)[C@]5(C)[C@@H](C7=CC(=O)OC7)CC[C@]65O)C4)O[C@@H]3C)O[C@@H]2C)O[C@H](C)[C@H]1O[C@@H]1O[C@H](CO)[C@@H](O)[C@H](O)[C@H]1O (some centres undefined)	.	7.2
CCOC(=O)C1=C(N)Oc2c(c(=O)oc3ccccc23)C12C(=O)N(CC(=O)OC)c1ccccc12 (centres undefined)	6.0	3.0
CC(=O)OCC1=C(C(=O)O)N2C(=O)[C@@H](NC(=O)CCCC(N)C(=O)O)C2SC1 (some centres undefined)	.	-12.4
CCOC(=O)C1=C(C)OC(N)=C(C(=O)OCc2ccccc2)C12C(=O)Nc1ccccc12 (centres undefined)	.	2.5
CCOC(=O)c1c(C)n(Cc2ccccc2)c2ccc(OC(=O)c3ccccc3Cl)cc12	.	-1.1
O=c1c2ccccc2[nH]c(=S)n1-c1cc(C(F)(F)F)cc(C(F)(F)F)c1	.	0.7
COCCOC(=O)C1=C(C)OC(N)=C(C#N)C12C(=O)Nc1ccc(Br)cc12 (centres undefined)	13.0	.
COc1ccc(-n2cnc3cc(C(=O)N4CCC5(CC4)OCCO5)ccc32)cc1	-1.0	0.5
Cn1c(O)c(C(=NCCN2CCCCC2)c2ccccc2Cl)c(=O)n(C)c1=O	.	2.1
CN1CCC(N(C)c2nc(-c3cccs3)nc3sc4c(c23)CCC4)CC1	28.0	.
COc1ccccc1C1C(C#N)=C(N)Oc2c1c(=O)sc1ccccc21 (centres undefined)	-21.0	.
Cc1cc(Br)c(NC(=O)C2C(C)(C)C2(C)C)c(Br)c1	-11.0	-1.0
O=S(=O)(c1ccc(Cl)cc1)N1CCCC1c1cccnc1 (centres undefined)	.	1.7
CC(Cc1ccccc1)NCCC(c1ccccc1)c1ccccc1 (centres undefined)	.	0.2
C/C(=C\c1ccc(Cl)cc1)[N+](=O)[O-]	.	1.5
COc1ccc(CC2C(=O)NC(=S)NC2=O)cc1	2.0	9.3
O=C(O)c1cn(Cc2ccccc2)c2ccccc12	16.0	.
CCC(C)c1c(O)[nH]c(=S)[nH]c1=O (centres undefined)	8.0	-2.4
OC1CCN(Cc2c[nH]c3ccccc23)CC1	5.0	0.3
ON=C1CC2CCCC(C1)N2Cc1ccccc1	.	-2.4
C1CCC(OCC2CCCN3CCCCC23)CC1 (centres undefined)	-19.0	1.0
COc1ccc(CCNC2CCCCC2)cc1OC	5.0	-1.9
COC(=O)Nc1nc2ccccc2[nH]1	.	-2.9
C/[N+]([O-])=C\c1cccnc1	0.0	.
COc1ccccc1CNCCc1ccccc1	14.0	-0.7
Clc1ccc(CN2CCNCC2)cc1	1.0	-0.1
Oc1ccc(N2CCNCC2)cc1	21.0	.
C#CC1(O)CN2CCC1CC2 (centres undefined)	13.0	.

Next section
SMILES	Sa helicase inh	MgrA-DNA mod
CC1CN=C(NCc2cccnc2)S1 (centres undefined)	6.0	0.1
O=C(c1cn(Cc2ccccc2)c2ccccc12)C1CC1	9.0	4.8
Cc1ccc(C)c(NC2=NCCCS2)c1	2.0	.
CC1CCOP(=S)(N(C)C)O1 (centres undefined)	9.0	3.0
NC1(c2cccc(Cl)c2)CCC1	3.0	.
COc1ccc(N2C(=O)CC(=O)NC2=S)cc1	33.0	.
O=C(O)C1(c2ccccc2)CCN(Cc2ccccc2)CC1	-11.0	.
Cc1cccc(N=C2SCCN2C)c1C	14.0	.
Nc1cc(C(=O)Nc2ccccc2F)ccc1N1CC2CC(C1)c1cccc(=O)n1C2 (centres undefined)	19.0	.
CCOP(=S)(c1ccccc1)C1(C#N)CCCC1 (centres undefined)	-14.0	.
Cc1ccc(NN)cc1C	-4.0	.
O=C1NC(=O)C(=Cc2ccc(Cl)cc2)C(=O)N1	.	6.8
COc1ccc(C2=[N+]([O-])C(C)(C(=O)c3ccccc3)N(O)C2OC)cc1 (centres undefined)	0.0	.
COc1cc2c(no[n+]2[O-])n2nnnc12	-24.0	.
Cc1nn(Cc2ccccc2)c(C)c1C(=O)OCC(=O)Nc1ccc(S(N)(=O)=O)cc1	-7.0	.
c1ccc(OCC2CCCN3CCCCC23)nc1 (centres undefined)	15.0	2.2
CN(C)c1ccc(P(=S)(N2CCCCC2)N2CCCCC2)cc1	-15.0	.
C1CN2CN3CCN(CN1C3)C2	-25.0	.
COCc1cc(OC(=O)N(C)C)nc(-c2ccncc2)n1	.	0.2
C=C1[C@@H](O)C2O[C@]3(CCC(/C=C/[C@@H](C)[C@@H]4CC(C)=C[C@@]5(O[C@H](C[C@@](C)(O)C(=O)O)CCC5O)O4)O3)CCC2O[C@@H]1C(O)C[C@H](C)C1O[C@@]2(CCCCO2)CC[C@H]1C (some centres undefined)	.	2.9
Fc1ccc(C2NCCc3[nH]cnc32)cc1 (centres undefined)	-24.0	.
Cc1ccc(CN(Cc2ccco2)C(=S)NCC(=O)N2CCC3(CC2)OCCO3)cc1	-6.0	.
CN(C)P1(=S)OCCCO1	21.0	2.5
Clc1ccc(C(Cn2ccnc2)OCc2csc3c(Cl)cccc23)c(Cl)c1 (centres undefined)	.	3.5
CC1(C)CN=C(Nc2nc3ccccc3s2)S1	6.0	1.1

(continued)
SMILES	Sa helicase inh	MgrA-DNA mod
CC(Cc1ccccc1)NC(=O)Cc1ccc(N(C)C)cc1 (centres undefined)	21.0	1.9
CCc1cc2c(cc1-c1csc(CC#N)n1)C(C)(C)CCC2(C)C	.	-1.3
COc1ccc2c(c1)[C@]13CCCC[C@H]1[C@H](C2)N(C)CC3	.	2.7
CCOc1ccc(CC2(CCc3ccncc3)C(=O)NC(=O)NC2=O)cc1	2.0	-1.2
O=C(O)C(O)(c1ccccc1)C1CCCCC1 (centres undefined)	16.0	.
CCCCn1c(=O)c(C(=O)NC(C)c2ccccc2)c(O)c2ccccc21 (centres undefined)	-25.0	.
CC(C(=O)c1ccc2ccccc2c1)N1CCCCC1 (centres undefined)	18.0	0.3
NCC(=O)c1ccc(Br)cc1	.	-2.0

By substructure, the compounds so far with two or more sulfur atoms
SMILES	Sa helicase inh	MgrA-DNA mod
N#CC(C#N)=Cc1ccc(-c2cccs2)s1	-74.0	.
CN1CCC(N(C)c2nc(-c3cccs3)nc3sc4c(c23)CCC4)CC1	28.0	.
CC1(C)CN=C(Nc2nc3ccccc3s2)S1	6.0	1.1

Screens from PubChem BioAssay.

The list is partial; the hit share may differ from the screen's.
